Screens (PubChem BioAssay)
RecA splice inh = Mtb RecA intein splicing inhibitors, primary screen, biochemical, fluorescence, HTS; cell-free RecA intein splicing; inhibition, %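 (about 9 µM by stock and volumes)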; 290,000 compounds, 0.75% hits; Protein RecA (Mycobacterium tuberculosis (strain ATCC 25618 / H37Rv)), P9WHJ3; in the data active = inhibition above about 30%; inconclusive = no clear call, values can overlap the other calls;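 note: 0% = vehicle wells and 100% = reference inhibitor control wells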
Target sequence (P9WHJ3 whole entry, looked up, canonical isoform): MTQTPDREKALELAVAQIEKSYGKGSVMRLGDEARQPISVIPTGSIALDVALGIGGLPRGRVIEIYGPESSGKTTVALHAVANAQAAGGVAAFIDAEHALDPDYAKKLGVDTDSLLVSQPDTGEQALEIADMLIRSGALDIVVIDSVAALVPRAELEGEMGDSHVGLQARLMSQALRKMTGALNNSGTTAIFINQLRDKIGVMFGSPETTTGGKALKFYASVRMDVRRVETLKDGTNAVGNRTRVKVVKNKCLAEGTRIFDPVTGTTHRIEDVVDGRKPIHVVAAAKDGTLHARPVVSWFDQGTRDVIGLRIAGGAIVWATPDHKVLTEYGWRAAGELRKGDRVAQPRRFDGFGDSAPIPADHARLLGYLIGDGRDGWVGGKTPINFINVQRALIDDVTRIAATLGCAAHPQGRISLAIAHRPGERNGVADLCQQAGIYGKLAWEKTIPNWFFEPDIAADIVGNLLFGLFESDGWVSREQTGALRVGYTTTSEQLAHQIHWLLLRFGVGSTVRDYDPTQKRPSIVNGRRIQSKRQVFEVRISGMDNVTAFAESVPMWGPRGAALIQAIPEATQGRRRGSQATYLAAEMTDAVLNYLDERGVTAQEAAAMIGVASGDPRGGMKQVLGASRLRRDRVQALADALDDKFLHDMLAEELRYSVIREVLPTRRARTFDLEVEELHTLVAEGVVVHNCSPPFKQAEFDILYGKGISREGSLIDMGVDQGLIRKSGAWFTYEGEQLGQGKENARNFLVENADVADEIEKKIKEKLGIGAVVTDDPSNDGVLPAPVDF
Arbovirus inh = antivirals against arbovirus infection, primary screen, cell-based, full library, 10K replicate subset; arbovirus infection cell-based antiviral screen; inhibition, % at 10 µM; 200,000 compounds, 0.37% hits;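 active = inhibition from about 30%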;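 note: bluetongue infection of BSR cells; cell survival read as ATP light after 72 h; 0% = infected wells without compound and 100% = uninfected wells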
Mtb betalactam = beta-lactam sensitization of Mtb H37Rv, H37Rv; M. tuberculosis H37Rv growth with meropenem, percent inhibition; hits of this screen are not shown here; inhibition, % at 25 µM; 330,000 compounds, 0.27% hits; AID 434955, 2010;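 active = about 74% or more and at least 40 points above the plate without the antibiotic, then above 30% in a dose series; inconclusive = first-round hits that could not be retested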;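 note: growth measured after seven days incubation then overnight dye step; 0% = bacteria only wells and 100% = bacteria with antibiotic; twin plates without the antibiotic show which effects depend on it; some results filed as inactive read as strong as hits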
Mtb H37Rv = M. tuberculosis H37Rv growth inhibitors, H37Rv strain (AID 1626); M. tuberculosis H37Rv growth inhibition; higher % means a stronger effect; inhibition, % at 10 µM, or IC50 in µM where a hit was titrated; 220,000 compounds, 0.95% hits;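 active = confirmed in a dose series; inconclusive = inhibition above 80% but not taken into the dose series; inactive = below 80% or under 30% at every dose of the series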;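 note: bacteria incubated seven days before Alamar blue readout; 0% = bacteria only wells and 100% = bacteria with antibiotic wells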
YopH PTP inh = YopH tyrosine phosphatase inhibitors, primary screen, biochemical, fluorescence Ex485/Em525. YopH tyrosine phosphatase [Yersinia enterocolitica]. inhibition, %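 (about 10 µM by stock and volumes)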. 140,000 compounds, 0.16% hits. AID 898, 2007;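 active = inhibition of 50% or more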;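 note: controls were vehicle for no effect and minimum signal wells for full effect; inactives centre near -20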
Arbovirus inh repeat = second read-out of Arbovirus inh, no call of its own (marks repeat the call); inhibition, %; measured here: 10K subset replicate screen; many hits read low in the repeat;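 first of two repeat runs on a subset; 0% = infected and 100% = uninfected wells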
* hit, by the source's call; ? = inconclusive; / = not tested or not shown. The list is partial; the hit share may differ from the screen's.

SMILES	RecA splice inh	Arbovirus inh	Mtb betalactam	Mtb H37Rv	YopH PTP inh	others
O=C(O)Cn1nc2c3c(cccc3c1=O)-c1ccccc1-2	-1.9	/	-7	/	/
Cc1ccc(C)c(S(=O)(=O)N2CCN(C(=O)Nc3ccccc3)CC2)c1	2.9	/	0	/	/
Cc1ccccc1-c1nn(-c2ccc(F)cc2F)cc1CNCC(C)O (stereo not given)	-0.3	7	-3	-4%	/
CC1(C(=O)N2CCC(CO)(Cc3cccc(C(F)(F)F)c3)CC2)CC1	1.3	/	7	/	/
c1ccc(CNCCc2ccc3c(c2)OCO3)nc1	0.1	-8	24	3%	-15
O=C(CCC(=O)N1CCN(Cc2ccc(F)cc2)CC1)Nc1nnc(C(F)(F)F)s1	0.1	/	7	/	/
O=C(NCc1ccccc1)c1cccc(F)c1F	0.1	3	2	-4%	/
O=c1cc(CSc2ccccn2)c2ccccc2[nH]1	/	2	0	-1%	-7
COc1ccccc1NC(=O)CCNC(=O)Cn1ccc2ccccc2c1=O	-0.7	1	-6	-1%	1	Arbovirus inh repeat=1
COc1cc([N+](=O)[O-])ccc1N=Nc1c(N)[nH]n(-c2ccccc2)c1=O	9.4	-17	2	1%	/
CCCS(=O)(=O)N1CCC(C(=O)NCCC(C)C)CC1	-3.7	-1	-1	-3%	/
Cc1cc(N(CN2CCCC2=O)C(=O)c2ccccc2)no1	-4.4	2	?	-1%	-47
COC1(C)CC2C(CC1OC(=O)c1cc([N+](=O)[O-])cc([N+](=O)[O-])c1)C2(C)C (stereo not given)	22	2	100	?	2
FC(F)(F)c1cnc(Oc2ccccc2-c2nnco2)c(Cl)c1	1.0	-12	-5	-9%	-4
CCOC(=O)Cc1csc(NC(=O)CCc2ccccc2)n1	-0.5	/	2	/	/
CCN(Cc1ccccc1)S(=O)(=O)c1ccc(C(=O)N(CCCN(C)C)c2nc3cc(C)cc(C)c3s2)cc1	31*	/	100	/	/
CCC/C(O)=C1\C(=O)CC(c2ccccc2)CC1=NC(C)C(=O)O (stereo not given)	-1.5	2	4	-4%	-27
N#C/C(=C(O)\C=C\c1ccccc1)c1nc2ccccc2[nH]1	-3.2	/	11	53%	/
Cc1cc2nc(=O)c(/C=C3\C=Nc4ccccc43)c(N)n2o1	-4.0	/	6	8%	/
C/C(CC(=O)Nc1ccc(N(C)C)cc1)=N\NC(=O)c1ccc(C(C)(C)C)cc1	0.7	/	4	/	/
CCCCC(=O)Nc1cc(OCC)c(NC(=S)NC)cc1OCC	-1.0	3	-11	8%	/
CC1(C)COCN1C(=O)c1ccc(C#N)cc1	-0.9	/	-9	/	/
CCCCc1nnc(SC(C)C(=O)Nc2nccs2)n1C (stereo not given)	0.8	/	0	/	/
COc1cc(/C=C2/NC(=O)N(CC(=O)Nc3ccc(C)cc3)C2=O)ccc1Oc1ccc([N+](=O)[O-])cn1	-0.9	4	0	-1%	/
COc1ccc(CCNC(=O)C2CCN(S(=O)(=O)c3ccc(SC)cc3)CC2)cc1	-0.7	/	0	/	/
Cc1ccc(NC(=S)NCC2CCN(C(C)c3ccccc3)C2)cc1 (stereo not given)	-2.6	12	-2	1%	/
COc1ccc2cc(CCNC(=O)C3CC3)c(=O)[nH]c2c1	0.0	2	-6	/	-34
CCCn1c(SCC(=O)Nc2nc3ccccc3s2)nc2c1c(=O)n(C)c(=O)n2C	5.5	2	43	-2%	-16
CCCCCCCCCCOC(=O)Cn1c(COc2cccc(C)c2)[n+](C)c2ccccc21	55*	/	71	/	/
Cc1ccc(NC(=O)COC(=O)c2sccc2C)cc1S(=O)(=O)N1CCOCC1	-0.1	19	-2	2%	-37
O=C(CSc1nnc(NCc2ccccc2)s1)N1CCOCC1	1.7	4	7	-9%	-28
Cc1ccc(NC(=O)CNC2CCCCC2)cc1Cl	3.6	/	19	/	/
CCN(C(=O)COC(=O)c1cc(-c2ccccc2)nc2ccc(Br)cc12)C1CCS(=O)(=O)C1 (stereo not given)	2.7	8	72	1%	/
COc1ccc(-c2cc(C(F)(F)F)nc(-n3ccnc3)n2)cc1	-2.2	0	-4	-3%	/
O=C(COC(=O)c1ccc(O)cc1)Nc1ccc(N2CCCCC2)cc1	-3.5	-2	25	4%	-12
NS(=O)(=O)c1ccc(CCNC(=O)C2COc3ccccc3O2)cc1 (stereo not given)	-2.3	/	-2	/	/
COc1ccc(C(c2nnnn2Cc2ccc(F)cc2)N2CCN(c3ccc(OC)cc3)CC2)cc1 (stereo not given)	/	8	6	8%	-34
CCOc1ccc(N/C=C\C(=O)c2ccc3c(c2)OCO3)cc1	-3.9	-16	99	4.5µM*	-20
Cc1cccc(NC(=O)Nc2c(C)n(C)n(-c3ccccc3)c2=O)c1C	1.7	/	-5	/	/
COc1ccc(NC(=O)c2cccnc2Sc2ccccc2)c(OC)c1	0.8	-8	-3	7%	-16
NCCCP(=O)(O)CCc1ccccc1	0.0	0	-1	0%	-42
Cn1c(SCc2cccc(C(F)(F)F)c2)nnc1-c1ccco1	-2.9	1	1	-4%	5
COCCNC(=S)N1CCN(c2nc(-c3cccc(OC)c3)cs2)CC1	3.3	/	22	/	/
CC(C)CN(C(=O)CSc1nnc2ccccn12)c1c(N)n(CC(C)C)c(=O)[nH]c1=O	-1.1	9	-16	-2%	-3
COc1ccc(NC(=O)C2CCCN(S(=O)(=O)c3cccc4cccnc34)C2)c(OC)c1 (stereo not given)	0.3	8	-1	-2%	-1	Arbovirus inh repeat=0
O=C(Nc1ccc(Cl)c(Cl)c1)N(Cc1cccnc1)Cc1ccco1	8.7	-10	16	/	-29
CN1CCN(C(=O)CN(CCc2ccccc2)S(C)(=O)=O)CC1	-1.2	6	-7	-7%	4
CC1CCCN(CCC(=O)c2ccc(Br)cc2)C1 (stereo not given)	/	2	100	?	-22
COc1ccc(Cn2c3ccc(OC)cc3c3nc4ccccc4nc32)cc1	-31	-18	10	5%	-25
CCCCn1c(SCC(=O)Nc2cc(C)on2)nnc1-c1ccncc1	3.1	/	2	/	/
Next section:
SMILES	RecA splice inh	Arbovirus inh	Mtb betalactam	Mtb H37Rv	YopH PTP inh	others
Cc1cccc2cc(-c3nc4c(C)cccn4c3NCc3ccco3)c(=O)[nH]c12	-4.3	-2	-10	11%	-13
CCCCn1c(N)c(N(CC(C)C)C(=O)COC(=O)Cc2c(C)nc3ccccc3c2C)c(=O)[nH]c1=O	-0.6	/	-20	/	/
Cc1ccc(NC(=O)CCNS(=O)(=O)c2ccc(Br)s2)cc1	-3.0	/	-7	/	/
CSc1ccccc1NC(=O)CN(c1cccc(C)c1)S(C)(=O)=O	2.9	-4	?	-1%	-24
Cc1ccc(C(CC(=O)NCc2ccco2)c2ccccc2)c(O)c1 (stereo not given)	3.6	2	?	-5%	-19
CCCn1c(-c2cccs2)nc2c1c(=O)[nH]c(=O)n2Cc1ccccc1	0.2	-7	-2	5%	/
CCC(OC(=O)c1ccco1)C(=O)NCc1ccco1 (stereo not given)	-1.3	-3	0	-11%	15
Cc1cc2c(c(=O)n1Cc1ccco1)C(c1cccnc1)C(C#N)=C(N)O2 (stereo not given)	-1.4	5	-10	-1%	-27
COc1ccc(Cc2noc(CN3CCN(c4ccc(Cl)cn4)CC3)n2)cc1OC	2.1	21	1	10%	/
Cc1c(C(=O)NC(=S)Nc2cccnc2)cccc1[N+](=O)[O-]	-1.6	/	1	/	/
O=c1[nH]ncc(N/N=C/c2ccccc2)c1Cl	0.3	3	2	-3%	-6
C=CCOc1cc(OC)c(OC)c(OC)c1	-0.8	0	-2	-1%	/
Cc1nc2c(C#N)cnn2c2c1CCNN2C	0.4	-2	-10	-8%	/
Cn1c(SCC(=O)c2cccs2)nnc1-c1ccco1	0.3	4	0	-3%	-33
Cc1c(Cl)cccc1NC(=O)CC1Sc2ccccc2NC1=O (stereo not given)	-2.1	/	7	-3%	/
NC(=O)CSc1ccc(Br)cc1	-3.2	3	-2	1%	-10
Cn1c(=O)c2c(nc(NCCNC(=O)c3ccco3)n2Cc2ccccc2Cl)n(C)c1=O	3.2	-11	-1	2%	-2
CCOc1cccc(/C=N/Nc2ccc(S(=O)(=O)N(CC)CC)cn2)c1O	5.0	-33	92	4%	-23
CN(C)CCOCCP(=O)(c1ccccc1)c1ccccc1	-0.1	5	-9	-5%	-34
CC(=O)N1CCN=C1SCc1ccc(Cl)cc1	4.4	-6	-1	-8%	-30
C/C(=N/OC(=O)c1ccc(C)cc1)c1cccs1	2.3	4	93	8%	-28
CCCOc1ccc(C(=O)Nc2cccnc2)cc1	-2.6	/	3	/	/
CCCCCCN1CC(=O)N2Cc3[nH]c4ccccc4c3C[C@H]2C1=O	-1.8	/	0	/	/
Cc1nn(-c2cc(C)c3ccccc3n2)c2c1C1C(C2)C1(C)C (stereo not given)	-1.7	-1	11	6%	0
COc1ccc(OC)c(Nc2ccc(Nc3cc(OC)ccc3OC)nn2)c1	0.2	2	4	3%	-21
CSc1nc(=O)n2cccc(C)c2n1	/	0	-7	9%	-36
Cc1nn(-c2ccccc2)c(-c2ccccc2[N+](=O)[O-])c1C(=O)O	0.8	/	21	2%	/
O=c1/c(=C/c2ccc([N+](=O)[O-])cc2)sc2n1CCCN=2	2.8	0	42	3%	-22
Cc1cccc2sc(NS(C)(=O)=O)nc12	/	15	-1	-7%	/
CCn1nc(C)c(Br)c1-c1nc(-c2cccc(C)c2)no1	6.8	/	2	6%	/

Next section; it opens with the five that closed the last part.
SMILES	RecA splice inh	Arbovirus inh	Mtb betalactam	Mtb H37Rv	YopH PTP inh	others
CSc1nc(=O)n2cccc(C)c2n1	/	0	-7	9%	-36
Cc1nn(-c2ccccc2)c(-c2ccccc2[N+](=O)[O-])c1C(=O)O	0.8	/	21	2%	/
O=c1/c(=C/c2ccc([N+](=O)[O-])cc2)sc2n1CCCN=2	2.8	0	42	3%	-22
Cc1cccc2sc(NS(C)(=O)=O)nc12	/	15	-1	-7%	/
CCn1nc(C)c(Br)c1-c1nc(-c2cccc(C)c2)no1	6.8	/	2	6%	/
CC(C)N1CCc2c(sc(NC(=O)c3nc4ccccc4s3)c2C(N)=O)C1	5.1	-7	90	20%	/
CC(C)c1ccc(OCC(=O)NC2CCCC2)cc1	-5.9	/	4	/	/
COc1cc(C(=O)N/N=C(\C)Cn2nc([N+](=O)[O-])cc2C)ccc1O	-1.7	-12	3	5%	-12
Cc1ccc(/C=N/NC(=O)CNC(=O)Cc2ccccc2)o1	1.8	-3	-5	-7%	6
O=C(NCc1cccnc1)NC1(c2ccccc2)CC1	-0.3	8	-2	-4%	-38	Arbovirus inh repeat=1
COc1ccccc1N1CCN(C2CC(=O)N(c3ccc(Cl)cc3)C2=O)CC1 (stereo not given)	-2.9	/	6	/	/
O=C(Nc1ncc([N+](=O)[O-])s1)c1ccco1	31*	/	?	/	/
COC(=O)c1cccc(NC(=O)c2onc3c2CCCC3)c1	-3.1	-22	0	-3%	-17
O=C(NCC(c1cccs1)N1CCOCC1)c1cc(-c2ccc(F)cc2)nc2ccccc12 (stereo not given)	3.3	10	98	63%	/
Cc1[nH]n(-c2ccc(C(=O)O)cc2)c(=O)c1CCO	/	15	/	-1%	/
CCOC(=O)C1(c2ccccc2)CCN(CC(=O)Nc2ccc(C)cc2)CC1	2.0	0	8	7%	/
CN(C)S(=O)(=O)N(CC(=O)Nc1cccc(F)c1)c1ccccc1	6.7	0	-11	-10%	-64
O=C(Nc1cc(S(=O)(=O)N2CCOCC2)ccc1N1CCOCC1)c1ccc(Cl)nc1	2.1	/	3	-8%	/
COC(=O)Nc1cc(C)nc2ccccc12	0.6	10	4	-9%	-19
NC(=O)N/N=C/c1coc2ccc(O)cc2c1=O	-6.5	/	-7	-3%	/
C/C(=N\NC(=O)c1ccc(CSc2nncn2C)cc1)c1cccs1	-0.7	7	4	12%	/
N#Cc1cc(S(=O)(=O)c2ccc(Cl)cc2)c(N)[nH]c1=O	-2.3	3	-4	-7%	/
C=CCSc1nnc(-c2ccc([N+](=O)[O-])cc2)o1	0.7	5	100	<0.2µM*	/

An excerpt from above in order of length of the SMILES, highest first.
SMILES	RecA splice inh	Arbovirus inh	Mtb betalactam	Mtb H37Rv	YopH PTP inh	others
COc1ccc(NC(=O)C2CCCN(S(=O)(=O)c3cccc4cccnc34)C2)c(OC)c1 (stereo not given)	0.3	8	-1	-2%	-1	Arbovirus inh repeat=0
Cc1ccc(NC(=O)COC(=O)c2sccc2C)cc1S(=O)(=O)N1CCOCC1	-0.1	19	-2	2%	-37
CCCCC(=O)Nc1cc(OCC)c(NC(=S)NC)cc1OCC	-1.0	3	-11	8%	/
